Screening results as filed in PubChem BioAssay.
A1 inh = caspase 3/7 activation in MEF A1-2A-BIM cells, primary screen, A1 inhibitor project, cell-based, luminescence, HTS; Caspase-Glo 3/7 luminescence, 3 h; percent of clofoctol response, vehicle zero; 0.066% of 330,000 active; caspase activation, % (no concentration beside the values);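 active = over half of replicate activation scores above 10%, or exactly half above 10 with the replicate mean above 10; inconclusive = replicate mean below 10 yet half the replicates above 10; inactive = over half of replicates below 10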;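 note: wells of about 30 µL received 50 nL stock; many hits fall short of the cut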
LANA-H2A inh = blockers of LANA interaction with H2A/H2B – biochemical, FP readout, HTS, primary screen; Protein LANA1 (Human herpesvirus 8 type P (isolate GK18)), Q9QR71; cell-free LANA-H2A/H2B peptide, fluorescence polarization; inhibition, % (test concentration not listed); 0.6% of 320,000 active; in the data active = inhibition mostly above about 10%, no sharp cut-off; inactive = mostly below about 6.7%;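 note: stock transfer was 7.5 nL into about 10 µL; 0% = median of vehicle wells and 100% = median of positive control wells; one replicate is shown; the record names a cut of 25% in any replicate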
Target sequence (Q9QR71 whole entry, looked up): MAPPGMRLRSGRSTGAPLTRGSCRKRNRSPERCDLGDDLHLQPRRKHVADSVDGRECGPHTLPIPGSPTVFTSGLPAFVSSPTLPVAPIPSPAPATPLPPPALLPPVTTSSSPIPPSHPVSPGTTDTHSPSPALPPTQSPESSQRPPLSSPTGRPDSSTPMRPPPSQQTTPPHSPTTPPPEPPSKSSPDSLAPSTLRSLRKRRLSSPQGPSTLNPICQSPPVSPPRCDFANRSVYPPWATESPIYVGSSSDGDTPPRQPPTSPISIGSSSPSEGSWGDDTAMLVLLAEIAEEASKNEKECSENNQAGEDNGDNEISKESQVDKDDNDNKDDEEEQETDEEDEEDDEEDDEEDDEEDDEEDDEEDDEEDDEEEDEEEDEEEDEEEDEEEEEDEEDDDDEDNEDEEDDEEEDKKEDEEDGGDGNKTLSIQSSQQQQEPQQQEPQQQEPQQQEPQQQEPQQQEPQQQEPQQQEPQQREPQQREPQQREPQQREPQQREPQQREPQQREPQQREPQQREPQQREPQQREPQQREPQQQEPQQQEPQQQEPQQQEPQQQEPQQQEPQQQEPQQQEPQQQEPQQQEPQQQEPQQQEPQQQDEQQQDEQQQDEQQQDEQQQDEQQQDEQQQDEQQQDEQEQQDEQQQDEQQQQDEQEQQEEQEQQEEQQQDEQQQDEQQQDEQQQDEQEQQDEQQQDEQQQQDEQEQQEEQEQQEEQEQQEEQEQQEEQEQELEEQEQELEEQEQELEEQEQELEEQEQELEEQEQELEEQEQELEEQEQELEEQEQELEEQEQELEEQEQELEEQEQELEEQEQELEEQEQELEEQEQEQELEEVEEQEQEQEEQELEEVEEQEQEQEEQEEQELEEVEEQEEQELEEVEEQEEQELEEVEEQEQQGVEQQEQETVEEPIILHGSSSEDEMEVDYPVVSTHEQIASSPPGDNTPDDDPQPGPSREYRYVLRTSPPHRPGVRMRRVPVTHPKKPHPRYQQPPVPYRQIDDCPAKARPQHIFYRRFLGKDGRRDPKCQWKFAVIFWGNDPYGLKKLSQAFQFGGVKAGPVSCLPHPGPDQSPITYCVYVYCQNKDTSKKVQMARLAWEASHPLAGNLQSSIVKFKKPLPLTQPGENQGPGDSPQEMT
Calb FLC = C. albicans growth inhibition with fluconazole, primary screen, CaCi-2 strain, Alamar Blue fluorescence. 0.57% of 300,000 active. C. albicans CaCi-2 (fluconazole-resistant clinical isolate) + fluconazole, 48 h. growth inhibition, % (test concentration not listed);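 active = most replicates above 75%; inconclusive = exactly half above 75%; inactive = most below 75%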;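 note: all wells also contain fluconazole at 8 µg/ml as a sub-toxic cotreatment; 0% = median of DMSO wells and 100% = median of geldanamycin control wells; wells of about 8 µL received 7.5 nL stock; the first replicate is given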
Beta apoptosis = inhibitors of cytokine-induced beta cell apoptosis, primary screen, luminescence | INS-1E cytokine-induced death, ATP luminescence, 48 h; percent of positive-control rescue, neutral wells zero | protection from apoptosis, % (no concentration beside the values) | 0.8% of 300,000 active | AID 435005, 2010;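 active = all replicates at 75% or more, or half of them and the mean; inconclusive = half reach 75% but not the mean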;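 note: 0% = cytokine-treated negative control wells and 100% = positive control rescue; higher means more ATP so stronger rescue from cytokine killing; wells of about 40 µL received 100 nL stock; the first replicate is given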
B2AR ag = beta2AR agonists driving receptor internalization, primary screen, cell-based, FAP fluorogen, flow cytometry; Beta-2 adrenergic receptor (Homo sapiens), P07550; 0.43% of 340,000 active; Am2.2-beta2AR cells; reference of the scale not given here; response, % (no concentration beside the values);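 active = response above a set limit, near 3 SD of response in nonfluorescent compounds, cut at about 42% in these data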;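 note: stock transfer was 100 nL into about 11 µL; a reference agonist was the positive control; negative values mostly stem from fluorescent compounds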
T cruzi repl = inhibitors of intracellular T. cruzi growth, primary screen, luminescence, NIH3T3 host cells; AID 1885, 2009; inhibition, % (concentration not given with the values); 1.4% of 300,000 active; T. cruzi beta-gal in NIH3T3, 90 h;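 active = mean inhibition across valid replicates above about 55%, limit read from the data; inconclusive = mean below that limit but half or more replicates reach it; inactive = mean below it, under half of replicates reach it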;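 note: signal also drops with host cell toxicity which is not excluded here; 0% = plate median of DMSO wells and 100% = zero luminescence signal; higher percent means less beta-gal luminescence so fewer parasites; stock transfer was 50 nL into about 50 µL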
UCH37 inh = inhibitors of human UCH37 deubiquitinase, primary screen, biochemical, Ub-AMC cleavage, fluorescence; Ubiquitin carboxyl-terminal hydrolase isozyme L5 (Homo sapiens), Q9Y5K5; AID 588478, 2011; inhibition, % (no concentration beside the values); purified proteasome/UCH37; 0.33% of 330,000 active;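 active = mean of two replicates above 20%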;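 note: 0% = compound-free wells with enzyme and 100% = wells lacking proteasome; stock transfer was 100 nL into about 20 µL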
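system = Proteasome-associated human UCH37 deubiquitinase | amount = 0.15 nM proteasome as dispensed | medium = pH 7.4 Tris-HCl (50 mM) with ovalbumin, ATP-MgCl2, DTT | incubation = 30 min preincubation with enzyme, 25 min cleavage at room temperature | detection = AMC fluorescence 355/460 nm | read-out basis = percent inhibition | controls = no-proteasome and no-compound wells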
RanGTP-Impb inh = inhibitors of RanGTP-importin-beta interaction, primary screen, biochemical, FRET, CFP-Ran, YFP-importin-beta, homogeneous. inhibition, % (test concentration not listed). cell-free CFP-Ran/YFP-importin-beta FRET ratio. Ran GTPase (GTP-bound) - importin-beta complex. AID 2216, 2009. 1.1% of 300,000 active;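 active = most replicates above 15%; inconclusive = exactly half above 15%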;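 note: 0% = DMSO wells and 100% = Ran loaded with GDP instead of GTP; wells of about 40 µL received 100 nL stock; the first replicate is given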
Starred values were filed as active, the others as inactive; ? = inconclusive; nt = not tested or not shown.

SMILES	A1 inh	LANA-H2A inh	Calb FLC	Beta apoptosis	B2AR ag	T cruzi repl	UCH37 inh	RanGTP-Impb inh
O=C(C1CCC1)N1CCN(S(=O)(=O)c2ccc(F)cc2)CC1	-1.4	-1.2	0	-8	12	0	5.4	nt
O=C(CN1C(=O)COc2ccccc21)N(Cc1ccccc1)Cc1ccccn1	0.4	-1.4	0	-1	-4	2	3.0	2.7
Nc1ccn(CC(=O)NCc2ccc3c(c2)OCO3)c(=O)n1	0.2	-0.3	nt	-2	-8	nt	4.1	nt
Cc1ccc(S(=O)(=O)N2CCN(C(=O)C3CC3C)CC2)c(C)c1 (stereo unspecified)	0.0	0.0	4	1	-5	-2	0.2	-1.9
O=C(c1ccc(F)cc1)N1CCCCC(S(=O)(=O)c2ccccc2)C1=O (stereo unspecified)	-0.4	0.5	5	-7	-4	10	-0.5	1.2
CC(C)OC(=O)CC12CN3CN(C1)CC(CC(=O)OC(C)C)(C3)C2=O	3.0	-9.8	-2	1	-1	-10	0.7	6.9
COC(=O)/C=C1\S/C(=N/NC(=O)c2ccc(OC)cc2)NC1=O	-0.8	-0.1	3	-5	0	-1	13	-0.8
NNC(=O)CN1C(CN2CCOCC2)=Nc2ccc(Br)cc2C1c1ccccc1 (stereo unspecified)	1.6	-5.9	-2	-7	-3	4	2.9	1.0
COC(=O)Nc1ccc(S(=O)(=O)Nc2ncccn2)cc1	1.1	-3.4	13	-2	3	11	0.0	1.5
COc1nn(CC(=O)N2N=C(C(F)F)CC2(O)C(F)F)cc1[N+](=O)[O-] (stereo unspecified)	0.1	0.8	-19	3	-2	-7	7.0	8.7
O=[N+]([O-])c1ccc(-c2nc(NCc3ccccc3)c3ccccc3n2)cc1	-0.2	-3.7	31	13	2	5	6.8	-2.0
Cc1ccc(S(=O)(=O)NCc2cn3ccccc3n2)c(C)c1	-0.1	4.8	3	-6	5	-12	2.3	1.6
COC(=O)c1[nH]c2cc(OC)ccc2c1NC(=O)CCN1CCN(c2cccc(C)c2C)CC1	-0.6	-6.5	-1	10	-3	8	-3.0	8.7
COc1ccccc1N1CCN(C2CCN(S(=O)(=O)c3ccc4ccccc4c3)CC2)CC1	0.1	2.6	9	-24	-6	25	-0.3	2.6
CCCN1CCC(=O)N([C@H](CSc2ccccc2)CC(C)C)CC1	-1.2	0.7	-30	-1	-4	-1	3.2	2.5
O=C(c1sc2ccccc2c1Cl)N(Cc1cccs1)C1CCS(=O)(=O)C1 (stereo unspecified)	-0.6	6.7	14	6	-12	7	3.9	-1.3
Cc1ccc(C2OC3=C(C(=O)CC(C)(C)C3)C(N)=C2C#N)o1 (stereo unspecified)	0.2	2.0	11	-6	-3	-17	-1.6	-5.9
COc1ccc(-c2cc(C(F)(F)F)nc(SCC(=O)NCCN3CCOCC3)n2)cc1OC	-0.5	1.2	-3	-1	8	-2	-7.4	0.4
COc1ccccc1C(=O)NC(=O)CSc1nc2nc(C)cc(C)n2n1	-2.3	-1.0	nt	-3	-6	nt	3.3	nt
CN(Cc1ccccc1)C(=O)NC1CCCCC1	0.0	-0.3	-9	-7	-5	-7	1.5	-2.4

Some of these compounds in order of number of heavy atoms, rising:
SMILES	A1 inh	LANA-H2A inh	Calb FLC	Beta apoptosis	B2AR ag	T cruzi repl	UCH37 inh	RanGTP-Impb inh
Nc1ccn(CC(=O)NCc2ccc3c(c2)OCO3)c(=O)n1	0.2	-0.3	nt	-2	-8	nt	4.1	nt
COc1nn(CC(=O)N2N=C(C(F)F)CC2(O)C(F)F)cc1[N+](=O)[O-] (stereo unspecified)	0.1	0.8	-19	3	-2	-7	7.0	8.7
O=C(c1sc2ccccc2c1Cl)N(Cc1cccs1)C1CCS(=O)(=O)C1 (stereo unspecified)	-0.6	6.7	14	6	-12	7	3.9	-1.3
O=[N+]([O-])c1ccc(-c2nc(NCc3ccccc3)c3ccccc3n2)cc1	-0.2	-3.7	31	13	2	5	6.8	-2.0

Next part.
SMILES	A1 inh	LANA-H2A inh	Calb FLC	Beta apoptosis	B2AR ag	T cruzi repl	UCH37 inh	RanGTP-Impb inh
COc1ccc(-c2cn3c(C)c(C(=O)NC(C)C)sc3n2)cc1	-0.2	-1.5	-17	0	-7	-7	3.7	1.4
CCOC(=O)c1ccc(NC(=S)N2CCSC2c2ccc(Br)cc2)cc1 (stereo unspecified)	-0.3	-3.1	9	1	5	-5	1.0	4.2
Cc1ccc(CNCC2CCCO2)o1 (stereo unspecified)	-0.1	1.5	2	-9	4	-21	5.1	1.3
COc1ccc(NC(=S)NC(NC(=O)CCl)C(Cl)(Cl)Cl)c([N+](=O)[O-])c1 (stereo unspecified)	0.5	-1.6	-6	3	3	9	13	4.8
Cc1ccc(/C=C/C2=NN(C)C(=O)CC2)cc1	-7.5	0.7	10	13	-2	-9	21*	0.9
COc1ccc(Nc2nc(N3CCN(C)CC3)nc3ccccc23)c(OC)c1	0.2	-2.0	-15	5	4	38	3.8	-0.5
CC(C)(C)OC(=O)NCCCCCc1nnc(SCc2ccccc2)o1	0.1	-2.9	-26	2	-2	14	2.1	-3.0
C=CCn1c(NC(=O)c2ccco2)nc2ccccc21	0.5	1.2	6	5	-1	-10	7.6	-2.3
COc1cccc(-c2cc(-c3cccnc3)nc(N)c2C#N)c1	-0.3	-0.5	2	-1	6	4	-328	6.4
CC(C)(C)c1ccc(CCC(CC(=O)O)CC(=O)O)cc1	0.4	1.7	-6	-3	-2	-5	-0.4	?
CCn1c(SCC(=O)N2CCOCC2)nc2oc3c(Cl)cc(Cl)cc3c(=O)c2c1=O	-0.6	-0.8	-5	nt	nt	-17	-1.7	-4.6
Cc1c(C)c(C)c(CO/N=C/c2cccs2)c(C)c1C	-0.4	3.2	-4	nt	-10	-4	nt	-2.0
CCn1cc(/C=N\NC(=O)c2cc(-c3ccccc3OC)nc3ccccc23)c(C)n1	1.0	1.7	-10	8	-8	-12	nt	0.5
CCCC(c1nnnn1Cc1ccc(OC)cc1)N1CCC(C(N)=O)CC1 (stereo unspecified)	-0.1	-2.0	-19	3	3	22	3.6	?
O=C(CCCOc1ccccc1)Nc1ccc(S(=O)(=O)Nc2ccccn2)cc1	1.7	6.2	-1	-3	6	0	-1.5	-1.1
COc1ccc(-n2cc(CN[C@H]3CCCCNC3=O)c(-c3cccc(F)c3)n2)cc1	0.9	-1.3	14	-2	7	5	2.4	3.1
Cc1ccc(C(=O)OCN2C(=O)c3ccccc3C2=O)c(O)c1	0.0	0.8	2	-1	-3	-7	-2.6	-1.1
Fc1ccccc1NC(=S)NCCc1ccc(Cl)cc1	0.0	-3.7	-39	7	-5	nt	1.3	nt
COc1ccc(-c2nnc3cccc(Cl)n23)c(OC)c1	0.2	7.2	-4	-5	-5	-21	3.2	-0.4
CCOC(=O)C(=Nc1ccccc1)NO	1.8	-4.4	-7	-9	2	-10	1.0	-0.7

2 entries drawn at random from those above:
SMILES	A1 inh	LANA-H2A inh	Calb FLC	Beta apoptosis	B2AR ag	T cruzi repl	UCH37 inh	RanGTP-Impb inh
COc1ccc(-c2nnc3cccc(Cl)n23)c(OC)c1	0.2	7.2	-4	-5	-5	-21	3.2	-0.4
Cc1ccc(/C=C/C2=NN(C)C(=O)CC2)cc1	-7.5	0.7	10	13	-2	-9	21*	0.9

Other compounds.
SMILES	A1 inh	LANA-H2A inh	Calb FLC	Beta apoptosis	B2AR ag	T cruzi repl	UCH37 inh	RanGTP-Impb inh
S=c1[nH]nc(-c2cc(-c3ccccc3)n[nH]2)n1/N=C/C=C/c1ccco1	0.2	0.3	7	-1	9	-11	nt	-0.4
COc1ccccc1NS(=O)(=O)c1ccc(C)c(NC(=O)c2ccc(S(=O)(=O)N3CCCCCC3)cc2)c1	2.5	-4.6	?	15	11	37	nt	2.9
O=C1C(NS(=O)(=O)c2cccs2)=C(N2CCN(Cc3ccccc3)CC2)C(=O)c2ccccc21	0.1	0.0	20	47	17	-3	4.6	1.6
NCCOc1ccccc1-c1ccccc1	0.6	-0.7	-17	-4	4	3	2.0	-4.0
OC1CN=C2CCCc3c2n(c2ccc(Cl)cc32)C1 (stereo unspecified)	0.7	0.7	-15	4	15	11	-55	-14
C[C@H](O)CC1=C[C@H](O)[C@@H](C)OC1=O	0.0	4.0	4	-5	9	-4	-2.0	?
CCOC(=O)N1CCN(S(=O)(=O)c2ccc(F)c(C(=O)Nc3ccc(C)c(Cl)c3)c2)CC1	0.5	nt	18	-3	1	16	-0.2	1.5
COc1ccc(S(=O)(=O)NNC(=O)Nc2ccccc2OC)c(OC)c1	0.9	-2.1	-26	0	7	-18	-2.5	3.1
O=[N+]([O-])c1ccc(Cl)cc1CN1CCCCCC1	-0.4	4.3	2	-9	-9	3	nt	-0.7
COc1ccc(CCn2c(-c3cccc([N+](=O)[O-])c3)nc3nc4ccccc4nc32)cc1OC	0.3	-2.0	-3	5	-6	-13	5.7	3.7
CC(C)OCCCNC(=O)Cn1ncc2c(=O)oc3ccccc3c21	1.0	-2.9	21	1	7	-12	3.6	?
CCCc1ccc(C(=O)NNc2cccc(C)c2)cc1	0.1	-0.8	97*	7	6	nt	-0.2	0.9
COc1ccnc2c1c(=O)n(Cc1cccc(Cl)c1)c(=O)n2C	0.4	1.4	7	3	-6	-7	-5.0	-0.1
COc1ccc(N2CCN(C(CNC(=O)C(=O)NCc3ccc4c(c3)OCO4)c3ccco3)CC2)cc1 (stereo unspecified)	-1.3	-3.9	0	-1	-4	4	-0.1	0.2
Clc1ccc(CSc2cc3c(nn2)-c2ccccc2CC3)cc1	-0.6	-4.5	-3	4	7	nt	4.2	-2.3
O=S(=O)(c1cccc2nsnc12)N1CCc2ccccc21	nt	nt	?	nt	2	0	5.5	-0.5
O=C(CCC(=O)N/N=C/c1ccccc1O)NCc1ccccc1	0.0	-0.5	1	0	3	4	nt	-5.4
CC(C)(C)c1nc(CN2CCCCC2)cc(CN2CCCCC2)c1O	-1.3	-1.2	nt	44	10	28	0.0	-0.8
CCc1nnc(NS(=O)(=O)c2ccc(N/C=C(\C=O)c3nc4cc(Cl)ccc4o3)cc2)s1	-0.7	1.1	10	-6	-135	-8	11	-2.4
CCN(CC)C(=O)c1ccc(S(=O)(=O)NCc2cccnc2)cc1	-0.9	-1.0	-5	5	-9	-33	0.6	5.6
COC(=O)c1ccc(C(=O)OC)c(NC2=NS(=O)(=O)c3ccccc32)c1	-0.5	-7.8	-8	1	12	-13	-47	0.1
CC1CCN(C(c2ccc(N(C)C)cc2)c2nnnn2Cc2ccc(F)cc2)CC1 (stereo unspecified)	2.0	-4.2	23	3	-8	3	3.9	-149
COc1cccc(/C=N/Nc2nc3ccccc3n3cnnc23)c1	1.3	-2.9	-2	-3	3	2	nt	3.2
CCOc1cc(NC(=O)C2CC2)c(OCC)cc1NC(=O)CCn1nnc2ccccc21	-0.4	-3.8	-19	0	-14	1	3.8	1.9
